Screens: PubChem BioAssay, Vanderbilt University
GIRK2 act – activators of human GIRK2 potassium channels. P48051. HEK293-GIRK2 thallium flux, Thallos fluorescence. calls only for hits at 25 µM. 0.05% of 63,000 active;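 active = among the strongest 0.2% of first-round signals and kept after retests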;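 also: first round at about 10 µM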
Target sequence (P48051 whole entry, looked up): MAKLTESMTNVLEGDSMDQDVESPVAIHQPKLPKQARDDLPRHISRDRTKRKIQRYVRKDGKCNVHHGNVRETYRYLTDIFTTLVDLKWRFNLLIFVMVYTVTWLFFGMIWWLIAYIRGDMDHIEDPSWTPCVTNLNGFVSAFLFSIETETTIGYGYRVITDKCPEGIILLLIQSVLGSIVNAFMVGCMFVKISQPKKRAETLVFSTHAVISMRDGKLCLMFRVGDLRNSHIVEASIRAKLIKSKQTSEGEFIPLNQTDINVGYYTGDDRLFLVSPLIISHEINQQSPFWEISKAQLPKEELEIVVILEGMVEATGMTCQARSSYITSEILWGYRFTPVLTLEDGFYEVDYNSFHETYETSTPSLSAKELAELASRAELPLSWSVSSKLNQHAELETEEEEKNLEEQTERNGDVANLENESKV
Calls only; i = inactive. The list is partial; count on the stated rates, not on these rows.

GIRK2 act | Compound
i | C=CCn1c(=O)c2c(nc3n2CCCN3c2ccc(Oc3ccccc3)cc2)n(C)c1=O
i | CCCc1cc2c(=O)c(-c3nc4ccccc4s3)c(COCC(=O)O)oc2cc1O
i | Cc1nc2ccccn2c1C(O)=C1C(=O)C(=O)N(CCCn2ccnc2)C1c1ccccc1 (centres undefined)
i | O=C(/C=C/c1ccccc1)NCC1(O)CCOc2ccccc21 (centres undefined)
i | O=C1CCCC(=O)N1CCS(=O)(=O)NCc1ccsc1
i | O=C(Cn1cccc(-c2nc(C3CC3)no2)c1=O)c1ccc2c(c1)OCO2
i | Cc1ccc(C(=O)Nc2ccc(S(=O)(=O)N3CCOCC3)cc2)cc1
i | O=C(c1ccccc1Cl)N1CC(c2nc(-c3ccccc3)no2)C1
i | Cc1nccn1CC1CCN(C(=O)/C=C/c2ccc3c(c2)OCO3)CC1
i | CCOC(=O)c1ccc(NC(=O)CSC2=NNC3C4CC(c5ccccc5)NN4C=CN23)cc1 (centres undefined)
i | CCOC(=O)Cn1c(=O)c2c(nc3n(-c4cccc(C)c4)c(C)c(C)n23)n(C)c1=O
i | CCOc1ccc(-c2noc(Cn3cnc4c(nnn4Cc4ccccc4C)c3=O)n2)cc1OC
i | Cn1nc(-c2ccc(F)cc2)cc1C(=O)NCC1(c2ccccc2)CCOCC1
i | Cc1cc(C(=O)NCCC(O)c2cccc3ccccc23)c(C)o1 (centres undefined)
i | COc1ccc(NC(=O)Cn2c(=O)nc(-c3ccccc3F)c3cc(Cl)ccc32)cc1OC
i | Cc1ccc(-c2csc3c(=O)[nH]c(N4CCCC(C(=O)NC(C)C)C4)nc23)cc1 (centres undefined)
i | CCCOc1ccc2cc(S(=O)(=O)N3CCCC3)ccc2c1
i | O=C(Cc1cccs1)N1CCC(c2nnc(C3CC3)o2)CC1
i | COc1nn(C)cc1C(=O)N1CCN(C2=NN=C(c3ccccc3)CS2)CC1
i | O=C(CSc1nc2ccccc2c(=O)n1NC(=O)Cc1ccccc1)NCc1ccccc1
i | COc1ccc(-c2noc(-c3nnn(-c4ccccc4C(F)(F)F)c3N)n2)cc1
i | O=C(/C=C/c1ccc2c(c1)OCO2)N1CCN(CC(O)C2CC2)CC1 (centres undefined)
i | O=C(NCc1nn(C2CCCC2)c(=O)c2ccccc12)c1nc2ccccc2s1
i | CCOc1ccc(-c2ccc(=O)n(CCCC(=O)Nc3ccc(C(C)=O)cc3)n2)cc1
i | COc1ccc2cc(C(=O)N3CCc4nc(NC(=O)c5cc(C)on5)sc4C3)[nH]c2c1
i | Cc1c(-c2nc(-c3ccccc3)cs2)nnn1-c1ccccc1
i | COc1ccccc1-c1nnc(C2CCN(C(=O)Nc3ccc4c(c3)OCO4)CC2)s1
i | Cc1ccc2nc(N(CCCn3ccnc3)C(=O)c3ccco3)sc2c1
i | Cc1ccc(-n2ccnc(SCC(=O)Nc3ccc(F)c(Cl)c3)c2=O)cc1
i | COC(=O)c1ccc(Oc2coc3cc(OC(=O)c4ccccc4F)ccc3c2=O)cc1
i | O=C(NC12CC3CC(CC(C3)C1)C2)c1cc(OCc2ccccc2)no1
i | Cc1ccnc(NC(=O)CCc2c(C)nn(-c3nc(C)c(C)c(=O)[nH]3)c2C)c1
i | CN(C)c1ncc(NC(=O)Nc2ccc(F)c(Cl)c2)cn1
i | Cc1cn2nnc(C(=O)NCCC3=CCCCC3)c2c(=O)[nH]1
i | CCCCOc1ccc(NC(=O)NCC2(CO)CC2)cc1
i | Cc1csc(C(=O)NCCC(O)c2cc(C)oc2C)c1 (centres undefined)
i | O=C(CN1CCc2nc(NC(=O)c3ccco3)sc2C1)Nc1cccnc1
i | C#CCSc1nnc(N2CCN(c3ccc(F)cc3)CC2)s1
i | Cc1cc(C)cc(NC(=O)CCC2=NS(=O)(=O)c3ccccc3N2)c1
i | CC1(C)O[C@@H]2[C@@H](CO[C@@]3(COS(N)(=O)=O)OC(C)(C)O[C@@H]23)O1
i | O=C(COc1ccccc1)N1CCN(c2cc(N3CCOCC3)ncn2)CC1
i | COc1ccc(CC(=O)NCC#CCOc2ccccc2C(N)=O)cc1OC
i | Cc1oc(-c2ccc(Cl)cc2)nc1CSc1nc(C(F)(F)F)cc(=O)[nH]1
i | Cc1ccc(NC(=O)COc2cc(C)nc(N3CCCC3)n2)c(Br)c1
i | O=C(Cc1cccs1)N1CCC(CSc2ccccn2)CC1
i | O=c1ccn(-c2cccc(Br)c2)nc1-c1nc(-c2ccc(Cl)c(F)c2)no1
i | CCOC(=O)C1=C(C)NC(=O)NC1c1ccc(Cl)cc1Cl (centres undefined)
i | O=C(Cc1nc(-c2ccccn2)n[nH]1)NCC1CCCO1 (centres undefined)
i | Cc1nnc(NC(=O)CN2CCC(c3nnc(-c4ccco4)s3)CC2)s1
i | O=c1c2nc(N3CCOCC3)sc2c(-c2cccs2)nn1Cc1ccccc1Cl
i | O=C(NCC1(c2cccs2)CCOCC1)c1ccc(OC(F)(F)F)cc1
i | COc1ccc(Cl)cc1NC(=O)CSc1nnc(-c2ccncc2)o1
i | COc1ccc(/C(C#N)=C/c2ccc(-c3ccccc3F)o2)cc1OC
i | CCOCCn1c(=O)c2c(nc3n(-c4ccc(C)cc4)c(-c4ccccc4)cn23)n(C)c1=O
i | COc1ccccc1CNC(=O)c1cn(-c2cc(N3CCC(C)CC3)ncn2)cn1
i | O=C(c1ccc(Cn2ccnc2)cc1)N1CC(c2nc(-c3cccs3)no2)C1
i | CCOc1ccccc1NC(=O)Nc1ccc2c(c1)N(S(=O)(=O)c1ccccc1)CCC2
i | COc1ccc(-c2noc(-c3nnn(-c4cccc(C(F)(F)F)c4)c3C)n2)cc1
i | O=c1ccc(S(=O)(=O)N2CCCCC2)cn1Cc1cccc(Br)c1
i | CCc1cc2c(=O)n(Cc3ccco3)c(SCC(=O)Nc3ccccc3)nc2s1

Continuation.
GIRK2 act | Compound
i | O=c1c2cc(-c3cccc4ccccc34)nn2ccn1Cc1nc(-c2ccc(Br)cc2)no1
i | Cc1cc(C(F)(F)F)nc(CCNC(=O)Nc2ccccc2Cl)n1
i | O=C(Nc1ccc(F)c(F)c1)C(=O)N1CCN(Cc2ccc3c(c2)OCO3)CC1
i | Cc1nc(-n2nc(C3CC3)cc2NC(=O)C(C)(C)Oc2ccc(Cl)cc2)[nH]c(=O)c1C
i | COc1ccccc1CCNC(=O)C1CN(C(=O)c2cc(C)on2)C1
i | COc1ccccc1N1CCN(CCNC(=O)C(=O)Nc2ccc3c(c2)OCO3)CC1
i | Cc1ccc(N2CCN(C(=O)COc3ccc(-n4cccn4)nn3)CC2)nn1
i | CCn1cc(C(=O)N2CCN(c3ccc(-c4noc(C)n4)cn3)CC2)c(=O)c2ccc(C)nc21
i | CN1N=C(C(=O)N2CCC(Cn3ccnc3)CC2)CCC1=O
i | O=C(NCC(c1cccs1)N1CCOCC1)c1cc(C2CC2)on1 (centres undefined)
i | Cn1c(=O)c2cc(C(=O)NCCc3ccccc3)n(Cc3ccco3)c2n(C)c1=O
i | Cc1cc(C)n(-c2nc(CCNC(=O)COc3ccc(Cl)cc3Cl)cs2)n1
i | CN(C(=O)Cn1cc(S(=O)(=O)N2CCOCC2)ccc1=O)c1ccccc1
i | O=C1NC(Cc2c[nH]c3ccccc23)C(=O)NC1Cc1ccccc1 (centres undefined)
i | CCOc1ccc(OCCNS(=O)(=O)c2ccc3c(c2)CC(C)N3C(C)=O)cc1 (centres undefined)
i | O=C(NCc1cc(F)cc(F)c1)c1nnn(-c2ccc(Cl)cc2)c1-c1cccnc1
i | CC(C)(C)c1csc(CN2CCN(CC(=O)Nc3cc(C(F)(F)F)ccc3Cl)CC2)n1
i | CCc1nnc(NC(=O)/C=C/C2=Cc3ccccc3OC2)s1
i | O=C(OCc1ccccc1)c1cc2cc(Br)ccc2oc1=O
i | CCOc1ccc(Cl)cc1S(=O)(=O)N1CCN(C)CC1
i | O=C(O)COc1ccc2c(c1)O/C(=C\c1cccc(Cl)c1)C2=O
i | CC(O)(CNS(=O)(=O)C1CCCCC1)c1ccco1 (centres undefined)
i | CCCN(CCC)S(=O)(=O)c1cc([N+](=O)[O-])ccc1C
i | CCOC(=O)c1ccc(Oc2coc3cc(OC(=O)N(CC)CC)ccc3c2=O)cc1
i | COc1ccc(S(=O)(=O)N2CCCCC2CC(=O)NCc2ccccn2)cc1 (centres undefined)
i | O=C(CSC1=NS(=O)(=O)c2ccccc2N1)NC1CCCCC1
i | CS(=O)(=O)N1CCC(C(=O)N2CC(c3nc(-c4ccccc4)no3)C2)CC1
i | Cn1cc(C(=O)NCc2c(F)cccc2F)nn1
i | COC(=O)Nc1nc2c(s1)CN(CC(=O)Nc1cc(C(F)(F)F)ccc1Cl)CC2
i | COc1ccc(S(=O)(=O)Nc2cnc(-n3nc(C)cc3C)nc2)c(C)c1C

Shown bar-delimited: part of the list above.
SMILES | GIRK2 act
Cn1c(=O)c2cc(C(=O)NCCc3ccccc3)n(Cc3ccco3)c2n(C)c1=O | i
COC(=O)Nc1nc2c(s1)CN(CC(=O)Nc1cc(C(F)(F)F)ccc1Cl)CC2 | i

Next part.
GIRK2 act | Compound
i | COc1ccc(CC(=O)N2CCN(c3nnc(SCC(N)=O)s3)CC2)cc1OC
i | COc1ccc(Cl)cc1NC(=O)N1CCCCCC1
i | O=C(CCC1CCCCC1)N1CCN(Cc2nnnn2-c2cccc(F)c2)CC1
i | O=C(NCc1cccnc1)C1CCN(c2nccn3nc(-c4ccccc4)cc23)CC1
i | CNC(=O)CCNS(=O)(=O)c1ccc(OC)c(N(C)S(=O)(=O)c2ccccc2)c1
i | CC1Oc2ccc(-c3csc(NS(C)(=O)=O)n3)cc2NC1=O (centres undefined)
i | COCCNC(=O)C(=O)NCCC1CCCCN1S(=O)(=O)c1ccccc1 (centres undefined)
i | COc1ccc(-c2noc(-c3ccc(=O)n(CC(=O)NCCc4cccs4)c3)n2)cc1OC
i | Cc1ccc(CNC(=O)C2CCN(c3nc4ccsc4c(=O)n3Cc3ccc(F)cc3)CC2)o1
i | Cc1cc(NC(=O)CSc2nnc(N3CCN(C(=O)c4cc(C)oc4C)CC3)s2)no1
i | CCOC(=O)Cn1c2c(c(=S)[nH]c1=O)CCC2
i | O=C(CSc1nnc(-c2cccc(S(=O)(=O)N3CCCC3)c2)o1)c1ccc(Cl)cc1Cl
i | O=C(NCCCn1ncccc1=O)Nc1ccc(C(F)(F)F)cc1
i | COc1cccc(S(=O)(=O)Nc2ccc(C(=O)N3CC(C)CC(C)C3)cc2)c1 (centres undefined)
i | O=C(Nc1ccc2c(c1)OCO2)N1C2CCC1CN(Cc1ccccc1)C2
i | COc1ccc(N2CC(C(=O)NC3(c4nc(C)no4)CCCCC3)CC2=O)cc1 (centres undefined)
i | O=C(Cn1ccn(-c2ccccc2)c(=O)c1=O)Nc1ccc(Br)cc1
i | CCc1nc2sc(C(c3ccc(F)c(F)c3)N3CCCCC3)c(O)n2n1 (centres undefined)
i | Cc1cc(NC(=O)Cc2cccs2)n(-c2nc3ccccc3s2)n1
i | COc1cccc(NC(=O)COc2cc(C)nc(N3CCCC(C)C3)n2)c1 (centres undefined)
i | CCOc1ccc(-c2ccc(N3CCN(C(=O)CCc4ccc(OC)cc4)CC3)nn2)cc1
i | COCCN1CCC(NC(=O)c2ccc(Br)o2)CC1
i | CC(O)(CNC(=O)c1ccsc1)c1ccco1 (centres undefined)
i | O=C(Cc1cccc2ccccc12)NCC1(CO)CC1
i | COC(=O)C1=C(CS(=O)(=O)c2ccc(Cl)cc2)NC(=O)NC1c1ccccc1 (centres undefined)
i | O=c1c2ccccc2c(-c2nc(-c3cccnc3)no2)nn1-c1cccc(Cl)c1
i | O=C(CSC1CCCC1)NCC#CCOc1ccc2c(c1)OCO2
i | CCOc1ccc(-c2ccc(=O)n(Cc3nc(-c4ccc(OC)cc4OC)no3)n2)cc1
i | COc1ccc(Cn2nc(-c3nc(-c4ccc(C)cc4)no3)ccc2=O)cc1
i | Cc1cn2c3c(=O)n(C)c(=O)n(C)c3nc2n1CCNc1ccc(Cl)cc1
i | CC(C(=O)Nc1ccc(-n2cnnn2)cc1)n1nc(-c2cccs2)ccc1=O (centres undefined)
i | Cc1nc(NCCNC(=O)Cc2ccc(F)cc2)cc(Nc2ccccn2)n1
i | CCCCN1C(SCC(=O)Nc2cc(OC)ccc2OC)=NS(=O)(=O)c2ccccc21
i | Cc1cc(C)n(-c2nc(CCNC(=O)c3ccccc3Br)cs2)n1
i | Cc1cc(NC(=O)C2CCN(C(=O)c3c(F)cccc3F)CC2)no1
i | Cc1cc(C)c(C)c(S(=O)(=O)NCC(=O)Nc2ccc(F)cc2)c1C
i | CCOC(=O)c1ccc(NC(=O)c2ccc(-n3nncc3C)cc2)cc1
i | CC(C)NC(=O)c1nnn(-c2ccc(Br)cc2)c1N
i | O=C(c1csc(-c2cc3ccccc3[nH]2)n1)N1CCOCC1
i | CS(=O)(=O)c1ccc2nc(NC(=O)Cc3csc(Nc4ncccn4)n3)sc2c1
i | COc1cccc(N2CC(C(=O)Nc3cc(N4CCCS4(=O)=O)ccc3C)CC2=O)c1 (centres undefined)

Reformatted bar-delimited: entries from further up.
SMILES | GIRK2 act
O=C(CSC1CCCC1)NCC#CCOc1ccc2c(c1)OCO2 | i
CCOc1ccc(-c2ccc(=O)n(Cc3nc(-c4ccc(OC)cc4OC)no3)n2)cc1 | i
COc1ccc(Cn2nc(-c3nc(-c4ccc(C)cc4)no3)ccc2=O)cc1 | i
Cc1cn2c3c(=O)n(C)c(=O)n(C)c3nc2n1CCNc1ccc(Cl)cc1 | i
CC(C(=O)Nc1ccc(-n2cnnn2)cc1)n1nc(-c2cccs2)ccc1=O (centres undefined) | i
Cc1nc(NCCNC(=O)Cc2ccc(F)cc2)cc(Nc2ccccn2)n1 | i
CCCCN1C(SCC(=O)Nc2cc(OC)ccc2OC)=NS(=O)(=O)c2ccccc21 | i
Cc1cc(C)n(-c2nc(CCNC(=O)c3ccccc3Br)cs2)n1 | i
Cc1cc(NC(=O)C2CCN(C(=O)c3c(F)cccc3F)CC2)no1 | i
Cc1cc(C)c(C)c(S(=O)(=O)NCC(=O)Nc2ccc(F)cc2)c1C | i
CCOC(=O)c1ccc(NC(=O)c2ccc(-n3nncc3C)cc2)cc1 | i
CC(C)NC(=O)c1nnn(-c2ccc(Br)cc2)c1N | i
O=C(c1csc(-c2cc3ccccc3[nH]2)n1)N1CCOCC1 | i
CS(=O)(=O)c1ccc2nc(NC(=O)Cc3csc(Nc4ncccn4)n3)sc2c1 | i
COc1cccc(N2CC(C(=O)Nc3cc(N4CCCS4(=O)=O)ccc3C)CC2=O)c1 (centres undefined) | i
